Insulin prom inh: TRM-6 insulin promoter activity inhibition; TRM-6 cells (human fetal islet line), insulin promoter-eGFP reporter, imaging; reporter expression induced with tamoxifen; inhibition, % at 2 µM; hit rate 0.9% among 130,000; AID 1273;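 active = inhibition above the mean plus 3 SD, with well images judged a real hit on visual review, cut at about 60% in these data, passing the limit was not always enough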
RGS16-Gao HTS: RGS16-Galphao interaction regulator (human) | O15492+P09471 | bead-based flow cytometry RGS16-Galphao binding, fluorescence; actives lie on both sides | binding response (% of control), % at 10 µM | hit rate 0.38% among 220,000;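 active = below 25% or above 175%, edge rows of some plates excepted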;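 also: Galphao activated by GDP with aluminum fluoride before binding; 100% = wells without compound and 0% = beads without RGS; some results beyond the cut were filed as inactive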
GALR2 ag: activates the human galanin receptor 2 | activation, %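 (tested at 5 µM)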 | AID 803 | GALR2-expressing cells, agonist activation read-out | O43603 | hit rate 0.48% among 140,000;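 active = above mean plus 3 SD of all compounds, about 5% in these data, not always enough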;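 also: 0% = vehicle buffer wells and 100% = reference agonist at full effect; tested in CHO reporter cells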
HSV replic up: HSV replication enhancement; HSV replication augmentation in cells, fold increase; maximum fold increase; hit rate 0.005% among 220,000; AID 1956;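 active = peak rise of 1.5-fold or more in the series; tested in PC3 cells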;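 also: first round at 10 µM; read as green reporter fluorescence; hits show the peak of a series up to 25 µM; 1 = signal of infected wells without compound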
PKD1 kinase inh: inhibitors of human PKD1 kinase. PKD1 kinase fluorescence polarization assay. inhibition, %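 (about 10 µM by stock and volumes)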. hit rate 0.056% among 200,000;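 active = inhibition of 50% or more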;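 also: controls were vehicle for no effect and a reference inhibitor for full effect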
Target sequence (Q15139 whole entry, looked up): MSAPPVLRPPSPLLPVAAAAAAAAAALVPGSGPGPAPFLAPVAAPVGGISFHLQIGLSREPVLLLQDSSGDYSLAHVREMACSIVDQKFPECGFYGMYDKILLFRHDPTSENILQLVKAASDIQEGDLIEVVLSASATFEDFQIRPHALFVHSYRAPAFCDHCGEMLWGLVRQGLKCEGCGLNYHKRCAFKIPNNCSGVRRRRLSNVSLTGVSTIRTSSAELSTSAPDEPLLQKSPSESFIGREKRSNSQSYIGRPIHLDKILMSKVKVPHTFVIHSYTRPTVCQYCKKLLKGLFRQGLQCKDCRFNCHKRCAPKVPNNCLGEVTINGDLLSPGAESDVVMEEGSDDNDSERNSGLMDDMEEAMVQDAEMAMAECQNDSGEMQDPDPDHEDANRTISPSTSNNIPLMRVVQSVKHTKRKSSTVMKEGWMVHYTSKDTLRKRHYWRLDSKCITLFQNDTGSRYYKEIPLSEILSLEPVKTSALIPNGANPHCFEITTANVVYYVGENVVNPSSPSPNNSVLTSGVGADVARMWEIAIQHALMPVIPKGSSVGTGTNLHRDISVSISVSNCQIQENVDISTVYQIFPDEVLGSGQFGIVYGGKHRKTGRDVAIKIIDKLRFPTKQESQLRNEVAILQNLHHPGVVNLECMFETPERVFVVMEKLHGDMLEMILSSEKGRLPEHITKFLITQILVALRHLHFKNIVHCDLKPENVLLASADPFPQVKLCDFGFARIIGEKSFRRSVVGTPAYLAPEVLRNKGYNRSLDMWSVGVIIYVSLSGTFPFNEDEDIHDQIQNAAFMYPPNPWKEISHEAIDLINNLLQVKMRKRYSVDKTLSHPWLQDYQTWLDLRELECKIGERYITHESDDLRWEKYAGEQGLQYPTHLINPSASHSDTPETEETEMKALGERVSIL
Insulin prom inh cell count: second read-out of Insulin prom inh, no call of its own (marks repeat the call); normalized cell count, %; measured here: cell count, toxicity; reference of the scale not given here;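 cells exposed to compound for 48 h; stained nuclei by imaging scaled within each plate; lower means fewer cells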
HSV replic up primary fold: second read-out of HSV replic up, no call of its own (marks repeat the call); fold increase; compound at 10 µM; measured here: primary screen fold increase 10 uM; tested in PC3 cells;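 GFP signal in the first replicate; 1 = infected wells without compound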
The depositor's hits bear a star; i = inactive; . = not tested or not shown.

smiles	Insulin prom inh	Insulin prom inh cell count	RGS16-Gao HTS	GALR2 ag	HSV replic up	HSV replic up primary fold	PKD1 kinase inh
CCN(CC)c1ccc2c(C)c(-c3ccc(N)cc3)c(=O)oc2c1	2	135	104	4.3	.	.	-12
O=C(Nc1ccc2c(c1)OCCO2)c1ccoc1	.	.	106	.	i	0.95	.
COCCNC(=O)C1CC(c2ccccc2[N+](=O)[O-])=NO1 (stereo unspecified)	-52	96	.	0.0	i	0.72	5
COC(=O)c1ccc(/C=N/OCC(=O)NC2CCCC(C)C2C)cc1 (stereo unspecified)	9	104	98	-1.5	i	1.2	0
Cc1ccc(Oc2cc(NC(=O)CCCn3nc([N+](=O)[O-])cc3C)cc([N+](=O)[O-])c2)cc1	-36	92	107	-0.3	i	0.95	-2
COC(=O)Nc1ccc(S(=O)(=O)N2CCCCC2C(=O)O)cc1 (stereo unspecified)	26	113	94	.	i	1	9
Cc1nc2sc(C(c3ccco3)N3CCC4(CC3)OCCO4)c(O)n2n1 (stereo unspecified)	-119	70	.	-3.3	i	0.79	0
O=C(c1ccco1)N1CCN(c2ncnc3sc4c(c23)CCC4)CC1	.	.	102	-0.8	i	0.79	-6
Fc1ccc(-c2ncc3ccccn23)cc1	.	.	106	.	i	1.1	1
Cc1ccccc1NC(=O)c1ccccn1	.	.	103	.	i	0.96	.
C=CC[C@H]1CC(C)=C[C@H](CC=C)N1	.	.	107	.	i	1	0
O=C(Cn1nc(C(F)(F)F)c2c1CCCC2)N1CCOCC1	8	82	99	.	i	1	-5
O=C(Nc1ccccc1C(=O)N1CCOCC1)c1ccc([N+](=O)[O-])cc1	.	.	98	.	i	0.91	-5
Cc1ccc(-n2nc(-c3ccc(N)cc3)cc2N)cc1	0	100	112	-1.0	i	0.99	4
CC(=O)c1cccc(NC(=O)NCc2ccccn2)c1	48	111	102	-1.5	i	0.97	4
CCOc1ccc(NC(=S)Nc2ccccc2C2CC2)cc1	10	111	106	.	i	0.92	0
CCOC(=O)/C=C1\SCC(=O)N1CC(=O)Nc1ccccc1OC(F)F	.	.	97	-2.5	i	1.1	-26
O=C(CN1C(=O)C2CCCCC2C1=O)N1CCN(c2ccccc2)CC1 (stereo unspecified)	.	.	105	.	i	0.92	-4
Nc1cc(=O)nc(SCC(=O)Nc2ccccc2Cl)n1-c1ccccc1	17	173	105	.	i	1	-5
C(=N\Nc1ccc(-n2ccnc2)nn1)/c1ccccc1	5	88	88	-2.0	i	0.97	-4
Cn1c(C(=O)N2CCCC2)cc2c(=O)n(C)c3ccccc3c21	.	.	102	-1.1	i	1	4
O=C(NCCc1ccccc1)c1cccnc1N1CCCCCC1	0	39	104	3.1	i	0.85	-4
Cc1ccc(Br)cc1S(=O)(=O)N1CCN(c2ccccc2)CC1	-33	106	105	1.8	i	0.9	-6
CCCCNC(=O)CSc1nc2ccc(N3CCOCC3)cc2c(=O)n1CCc1ccccc1	.	.	101	0.0	i	0.91	-5
COc1ccc(NC(=S)N(CCN2CCOCC2)Cc2cc3cc4c(cc3[nH]c2=O)OCCO4)cc1	.	.	89	.	i	0.91	-3

Molecules shown so far with a furan ring, fused or not (three):
smiles	Insulin prom inh	Insulin prom inh cell count	RGS16-Gao HTS	GALR2 ag	HSV replic up	HSV replic up primary fold	PKD1 kinase inh
O=C(Nc1ccc2c(c1)OCCO2)c1ccoc1	.	.	106	.	i	0.95	.
Cc1nc2sc(C(c3ccco3)N3CCC4(CC3)OCCO4)c(O)n2n1 (stereo unspecified)	-119	70	.	-3.3	i	0.79	0
O=C(c1ccco1)N1CCN(c2ncnc3sc4c(c23)CCC4)CC1	.	.	102	-0.8	i	0.79	-6

The list goes on:
smiles	Insulin prom inh	Insulin prom inh cell count	RGS16-Gao HTS	GALR2 ag	HSV replic up	HSV replic up primary fold	PKD1 kinase inh
COc1ccc(Sc2ccc(/C=C3\C(=O)NN(c4ccccc4)C3=O)o2)cc1	29	80	108	0.2	i	1.1	6
Cc1ccc(C(=O)N/N=C/C2=Cc3ccccc3OC2C)cc1 (stereo unspecified)	-21	112	101	-0.3	i	0.87	-3
COc1ccc(/C(C)=N/NC(=O)C(NC(=O)c2ccccc2)c2n[nH]c(=O)c3ccccc23)c(OC)c1 (stereo unspecified)	.	.	107	.	i	0.97	.
OCC1(CC2CCCCO2)CCN(Cc2cccc(O)c2)CC1 (stereo unspecified)	.	.	112	.	i	1.1	4
Cc1ccc(NCc2nnc(SCC(=O)Nc3cccc(O)c3)n2CC2CCCO2)c(C)c1 (stereo unspecified)	.	.	100	-0.4	i	1	0
N#CCN1C(=O)C2CCCN2c2ccc(S(=O)(=O)N3CCOCC3)cc21 (stereo unspecified)	.	.	103	.	i	0.84	0
O=C(c1ccc(CSc2nc3ccncc3[nH]2)cc1)N1CCCCCC1	.	.	100	.	i	0.98	.
CCOC(=O)c1cc(-c2cccs2)nc2c1c(C)nn2-c1ccccn1	29	72	158	.	i	0.82	-3
CN(CCCCCNC(=O)/C=N/O)Cc1ccccc1	.	.	106	0.3	i	0.96	-14
CC(C)CNC(=O)COC(=O)c1ccc([N+](=O)[O-])cc1Cl	.	.	106	-0.6	i	0.87	-7
O=C(CNC(=O)c1ccccc1)NCC(=O)OCc1ccc(Cl)cc1	10	132	101	-1.1	i	0.83	3
O=C(NN=C1CCCC1)C1COc2ccccc2O1 (stereo unspecified)	.	.	99	.	i	0.91	-1
O=C(N/N=C\c1cn[nH]c1-c1ccc(Cl)cc1)c1cccs1	.	.	108	.	i	0.97	.
COc1ccc(S(=O)(=O)N2CCN(S(=O)(=O)c3ccc(C(F)(F)F)cc3)CC2)cc1C	21	119	96	-1.1	.	.	-11
COc1ccc(OC)c(N(CC(=O)N2CCC(C)CC2)S(=O)(=O)c2ccccc2)c1	-14	90	115	-3.1	i	0.98	-1
COc1ccc([C@H]2C=C(C(=O)O)O[C@@H](OCc3ccc(CO)cc3)C2)cc1	.	.	102	.	i	0.72	.
COCCn1c(SCC(=O)c2ccccc2)nc2ccccc2c1=O	.	.	99	.	i	1	-4
Cc1nc(CSc2nc3[nH]ncc3c(=O)n2-c2ccccc2)cs1	-9	86	100	-2.8	i	0.97	1
O=C(COc1ccc(/C=N/NS(=O)(=O)c2ccccc2)cc1)Nc1cccc(Cl)c1	20	156	102	-3.1	i	0.94	-2
CCCN(CCC)C(=O)c1c(NC(=O)CC)sc2c1CCCCC2	-62	101	105	-2.3	i	0.9	3
CSc1ccccc1C(=O)Nc1nc2ccccc2[nH]1	-9	79	112	.	i	0.93	-1
CC(Oc1ccc(Cl)cc1)c1ccnn1S(=O)(=O)c1ccccc1 (stereo unspecified)	-50	103	113	-2.5	i	0.85	8
CCCCOc1c(Br)cc(/C=N/O)cc1OCC	55	96	101	-1.8	.	.	0
CCC(=O)c1ccc(OCC(=O)O)c(OC)c1	.	.	100	.	i	0.92	1
O=C(NNC(=O)c1cc(-c2cccnc2)nc2ccccc12)Nc1ccc(Cl)cc1	.	.	70	.	i	0.9	2
CCN(CC)S(=O)(=O)c1ccc(F)cc1	-190	117	76	-2.1	i	1.1	-5
OCCN(Cc1ccccc1)Cc1ccc(Cl)cc1Cl	24	69	102	-1.9	i	0.97	-8
O=[N+]([O-])c1ncccc1Oc1nc(-c2cccnc2)nc2ccccc12	.	.	100	.	i	0.94	3
NS(=O)(=O)c1ccc(NC(=O)c2ccc(S(=O)(=O)N3CCOCC3)o2)cc1	.	.	91	.	i	0.87	.
COC(=O)CNC(=O)C12CC3CC(C1)CC(c1ccc(C)cc1)(C3)C2	.	.	97	.	i	0.83	-1
COC(=O)c1sccc1NC(=O)C1CCCCC1C(=O)O (stereo unspecified)	.	.	81	.	i	0.98	3
CNC(=O)c1sc(-c2ccccc2)nc1C	-14	121	102	-1.1	i	1	-12
CCC(C)[C@H](NC(=O)NCCC1=CCCCC1)C(=O)OC (stereo partly specified)	.	.	94	.	i	1.1	.
O=C(CN1C(=O)c2ccccc2C1=O)N1CCN=C1c1ccccc1	.	.	106	.	i	1	.
CN1C(=O)C2(C(C#N)=C(N)N(c3cc(Cl)cc(Cl)c3)C3=C2C(=O)CC(C)(C)C3)c2ccccc21 (stereo unspecified)	8	125	104	-0.8	i	0.76	2
CCS(=O)(=O)NCCc1csc(-c2cccnc2)n1	.	.	98	-1.9	i	1	-12
O=C(c1cc2ccc([N+](=O)[O-])cc2oc1=O)N1CCOCC1	.	.	105	.	i	1.1	-11
Cc1cc(=O)oc2cc(OCC(=O)OCC(=O)Nc3ccc(C(C)C)cc3)ccc12	-13	77	55	-0.9	i	0.92	0
c1ccc2oc(-c3ccc(Nc4nc(N5CCCC5)nc(N5CCOCC5)n4)cc3)nc2c1	.	.	107	.	i	0.96	-2
C=CCn1c(SCc2c(C(=O)OC)sc(N)c2C(=O)OC)nnc1-c1ccc(Cl)cc1	0	90	100	-1.3	i	0.94	-6
O=C1Nc2ccccc2N(O)N1c1ccc(S(=O)(=O)N2CCOCC2)cc1	23	95	52	-2.6	i	1	6
CCOC(=O)C1CCN(Cc2ccc(O)c(OC)c2)CC1	.	.	99	-0.9	i	0.88	-20
CCOC(=O)CSc1nc2ccccc2c(=O)n1CC1CCCO1 (stereo unspecified)	.	.	7	-1.7	i	1	-4
CC(C)CN1C(=O)NC(NC(=O)c2cccnc2)(C(F)(F)F)C1=O (stereo unspecified)	14	200	102	-3.2	i	0.99	2
Cc1ccc(-c2cc(C(=O)N/N=C/c3c[nH]c4ccccc34)n[nH]2)o1	-12	151	99	-0.8	i	0.95	-5
O=C(CCCCn1c(=O)c2ccccc2n(CC(=O)NC2CCCC2)c1=O)NCc1ccco1	.	.	124	-2.6	i	0.98	-3
CC(=O)NC(=S)Nc1ccc(NC(=O)COc2ccc(Cl)cc2)cc1	-42	129	145	-0.7	i	1	-4
Cc1cc(C)n(CCN(C)C(=O)CCc2nnc(-c3ccc4c(c3)OCO4)o2)n1	.	.	98	.	i	1.3	-5
O=c1cc(CN2CCN(c3ccccc3F)CC2)c2cc(O)c(-c3ccccc3)cc2o1	7	106	101	-2.6	i	0.81	-13
O=C(CCCNC(=O)/C(=C\c1ccc(F)cc1)NC(=O)c1ccccc1)OCc1ccccc1	-31	88	105	-4.7	i	1	-4

Later entries.
smiles	Insulin prom inh	Insulin prom inh cell count	RGS16-Gao HTS	GALR2 ag	HSV replic up	HSV replic up primary fold	PKD1 kinase inh
CCc1ccc(C(=O)NC(C(=O)NCC2CCCO2)C(C)C)cc1 (stereo unspecified)	.	.	102	.	i	0.77	3
CCOC(=O)C1CCCN(C(=O)c2cc3c(-c4cccc(OC)c4)nn(C)c3s2)C1 (stereo unspecified)	-35	74	101	1.3	i	0.94	4
COc1ccc(N(CC(=O)NCCSCc2ccco2)S(=O)(=O)c2ccc(C)cc2)cc1	.	.	98	.	i	0.85	-2
CC(C)C(=O)OC1CCS(=O)(=O)c2sccc21 (stereo unspecified)	29	106	100	.	i	1.2	9

By substructure, those above with a cyano group
smiles	Insulin prom inh	Insulin prom inh cell count	RGS16-Gao HTS	GALR2 ag	HSV replic up	HSV replic up primary fold	PKD1 kinase inh
N#CCN1C(=O)C2CCCN2c2ccc(S(=O)(=O)N3CCOCC3)cc21 (stereo unspecified)	.	.	103	.	i	0.84	0
CN1C(=O)C2(C(C#N)=C(N)N(c3cc(Cl)cc(Cl)c3)C3=C2C(=O)CC(C)(C)C3)c2ccccc21 (stereo unspecified)	8	125	104	-0.8	i	0.76	2

Screening results: PubChem BioAssay, several laboratories
